PV pol inh: inhibitors of poliovirus RNA polymerase binding and polymerization; P03300; poliovirus polymerase elongation, fluorescence polarization; active compounds read low; % elongation, % (compound at 16.7 µg/mL); 150,000 compounds, 0.66% hits; AID 588519; in the data active = % elongation below about 90%; note: some results filed as inactive read as strong as hits
MenB inh: Mtb MenB enzyme inhibition; P9WNP5; 100,000 compounds, 0.43% hits; inhibition, %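 (about 12 µg/mL by stock and volumes)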; MenB enzyme assay, absorbance read-out; some hits fall short of the stated cut;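 active = mean of two replicates above 30%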;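 note: 0% = no compound and 100% = wells with inactive enzyme; the first replicate is given; strong numbers were not always called active; inactives centre near -10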
Target sequence (P9WNP5 whole entry, looked up): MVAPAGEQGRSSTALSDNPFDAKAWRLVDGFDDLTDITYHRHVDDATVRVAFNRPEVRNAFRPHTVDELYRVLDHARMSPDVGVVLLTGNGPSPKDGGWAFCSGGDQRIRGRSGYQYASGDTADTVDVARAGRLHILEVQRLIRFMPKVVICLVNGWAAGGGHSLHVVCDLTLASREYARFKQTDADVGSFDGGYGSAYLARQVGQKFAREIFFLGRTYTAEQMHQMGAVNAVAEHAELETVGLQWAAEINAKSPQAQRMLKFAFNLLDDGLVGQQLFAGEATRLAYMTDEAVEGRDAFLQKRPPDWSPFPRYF
Mtb MbtI inh: blocks the Mycobacterium tuberculosis siderophore enzyme MbtI; purified MbtI enzyme, fluorescence intensity read-out; inhibition, %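 (about 17 µg/mL by stock and volumes)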; 100,000 compounds, 0.89% hits; AID 493033;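 active = above 50% in both replicates, above 80% if mildly self-fluorescent; inactive = the rest, strongly fluorescent compounds included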;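 note: 0% = mean of negative and 100% = mean of positive controls; one replicate is shown; some compounds called inactive have numbers as strong as hits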
Target sequence (P9WFX0 whole entry, looked up): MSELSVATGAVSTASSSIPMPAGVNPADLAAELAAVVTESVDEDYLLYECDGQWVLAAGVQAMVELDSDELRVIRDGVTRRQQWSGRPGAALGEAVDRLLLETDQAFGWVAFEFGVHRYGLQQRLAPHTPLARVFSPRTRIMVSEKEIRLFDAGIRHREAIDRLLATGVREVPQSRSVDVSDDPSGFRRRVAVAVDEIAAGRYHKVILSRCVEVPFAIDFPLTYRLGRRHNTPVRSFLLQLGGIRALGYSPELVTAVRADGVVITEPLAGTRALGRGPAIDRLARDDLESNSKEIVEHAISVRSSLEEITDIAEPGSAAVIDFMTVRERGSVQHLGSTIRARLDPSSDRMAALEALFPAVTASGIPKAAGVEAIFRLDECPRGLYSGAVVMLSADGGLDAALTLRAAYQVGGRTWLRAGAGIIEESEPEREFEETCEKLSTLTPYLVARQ
PV pol inh intensity: second read-out of PV pol inh, no call of its own (marks repeat the call); % elongation; measured here: total intensity read-out; formula for this scale not given here;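 total fluorescence in place of polarization; lower means less elongation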
An asterisk follows results filed as active; i = inactive; / = not tested or not shown.

SMILES	PV pol inh	PV pol inh intensity	MenB inh	Mtb MbtI inh
N#CC1=C(N)SC(N)=C(C#N)C1c1cccs1	75	194	-180	97
O=C(CN1CCN(c2ccc(O)cc2)CC1)Nc1cc(C(F)(F)F)ccc1N1CCOCC1	102	108	-9	1
O=C(NC1CCCCC1)C(c1ccccn1)N(Cc1ccc2c(c1)OCO2)C(=O)C(F)(F)F (stereo unspecified)	103	110	-22	/
C(=N\N1CCOCC1)/c1cccc(/C=N/N2CCOCC2)c1	98	97	0	13
Nc1scc[n+]1CC(=O)N1CCCc2ccccc21	105	108	/	-2
COc1ccc2ncc(C(=O)N3CCOCC3)c(Cl)c2c1	106	113	-10	/
COc1ccc(/C=N/c2nc3ccccc3n2C)cc1OC	104	102	-86	-6
Cc1cc(=O)oc2cc(OCC(=O)N3CCCC(C)C3)ccc12 (stereo unspecified)	100	100	/	89
C[N+]1(CC(=O)OCCCc2ccccc2)CCOCC1	103	106	-18	-4
O=C(NCc1cn2ccccc2n1)c1cc(F)c(F)c(F)c1F	105	107	/	-10
Cc1cccc(N2C(=O)/C(=C3/C(=O)N(CC(=O)O)c4ccccc43)SC2=S)c1C	102	93	-50	/
CN(CC(=O)Nc1ccc(N2CCOCC2)cc1)c1ncnc2sccc12	101	101	8	-4
O=C(CCc1c[nH]c2ccccc12)NCC(F)(F)F	103	109	0	5
O=C(COc1ccc(-c2nnco2)cc1)NC1CCS(=O)(=O)C1 (stereo unspecified)	105	104	-15	-8
CN(C)C(=O)c1ccccc1C(=O)N(C)C	105	110	-8	/
C=CCNc1nc(N)c(C(=C(C#N)C#N)c2ccccc2)s1	100	107	-1	89
O=c1c2ccccc2c(-c2nnc(SCc3ccc(F)cc3)o2)nn1Cc1ccccc1	102	111	-32	10
CCN(CC)C(=O)C1=CC(c2ccc(OC)cc2)=NS(=O)(=O)N1C	101	96	-17	14
O=S(=O)(c1ccccc1)N1CCCC1c1cccs1 (stereo unspecified)	105	110	-1	-3
CC(C)c1ccc2nc(-c3ccc(N)cc3)[nH]c2c1	103	101	-25	115
Cn1c(-c2ccc(C(C)(C)C)cc2)n[nH]c1=S	102	103	-14	43
CCC(=O)Oc1ccc(C(=O)Nc2nccs2)cc1	102	103	-8	-11
N#CC(CC(=O)c1ccccc1)c1ccccc1 (stereo unspecified)	105	109	-10	/
O=C(O)CN1CCN(Cc2ccccc2)C1=O	103	104	-4	8
CCN(CC)C(=O)/C(C#N)=C/c1cn(-c2ccccc2)nc1-c1ccccc1	103	101	-10	4
CC(C)c1nc2sc3c(c2c(=O)n1N)CC(C)(C)OC3	102	104	9	2
Cc1ccc(C=Nc2ccc(F)c(F)c2)o1	105	121	/	-9
CC1(C)S[C@@H]2[C@H](NC(=O)[C@H](N)c3ccc(O)cc3)C(=O)N2[C@H]1C(=O)O	102	103	-1	-12
Cc1cc(/C=N/n2cnnc2)c(C)n1-c1cccc(C(F)(F)F)c1	101	96	-8	17
NC(c1ccc2c(c1)CCCC2)c1cccs1 (stereo unspecified)	103	104	-14	5
c1coc(CCC2NCCn3cccc32)c1 (stereo unspecified)	104	105	-4	/
Cc1c(C(=O)O)sc2nc[nH]c(=O)c12	107	100	9	/
CC(=O)N1CCC2(CC1)CC(=O)c1cc(OCC(=O)O)ccc1O2	101	101	3	40
Cc1ccc(S(=O)(=O)Nc2ccc(C(=O)Nc3nccs3)cc2)cc1	101	103	0	-76
Cc1c(Cl)cccc1NC(=S)N(C)CCC#N	106	108	-10	-7
COc1ccc(C(O)(C(=O)O)c2ccccc2)cc1 (stereo unspecified)	101	100	-2	-7
Cn1c(=O)c2c(SCC(N)=O)nc(CC(C)(C)C)nc2n(C)c1=O	102	101	-19	-20
Cn1c(=O)c2cc(C(=O)NCc3ccco3)sc2c2ccc(Cl)cc21	101	103	-7	43
COc1ccc(-c2nnc(SCC(=O)NCCC3=CCCCC3)o2)cc1	96	111	6	10
Nc1cc(=O)[nH]c(=S)n1-c1ccccc1	99	105	-28	17
CCc1ccc(NC(=O)c2ccnc(C(C)(C)C)c2)cc1	100	102	-22	2
Clc1cccc(N2CCN(c3ncnc4[nH]ncc34)CC2)c1	100	103	-13	-10
CC(C)c1ccccc1OCC(=O)O	98	114	/	-7
CC1=C(C)CS(=O)N(S(=O)(=O)c2ccc(C)cc2)C1 (stereo unspecified)	99	105	28	45
O=C(Nc1ccc(-n2cnnn2)cc1)c1cccc(S(=O)(=O)N2CCc3ccccc3C2)c1	96	98	-3	-23
CCC(C)N1CCC(N)=NC1=O (stereo unspecified)	101	98	1	-28
CCOC(=O)CSCc1cn2cc(Cl)ccc2n1	103	108	/	-7
CCn1c2ccccc2c2nnc(NCCOc3cccc(C(F)(F)F)c3)nc21	101	97	-15	-1
CN(Cc1cccc(O)c1)C1CCCCC1	99	100	-6	-2
N#CCCN(C(=O)C1CCCCC1)c1ccccc1F	104	106	/	-7

Part of the list above, reduced to PV pol inh and PV pol inh intensity.
mol	PV pol inh	PV pol inh intensity
Cc1c(C(=O)O)sc2nc[nH]c(=O)c12	107	100
CC(=O)N1CCC2(CC1)CC(=O)c1cc(OCC(=O)O)ccc1O2	101	101
Cc1ccc(S(=O)(=O)Nc2ccc(C(=O)Nc3nccs3)cc2)cc1	101	103
Cc1c(Cl)cccc1NC(=S)N(C)CCC#N	106	108

More records follow:
SMILES	PV pol inh	PV pol inh intensity	MenB inh	Mtb MbtI inh
O=C(CSc1nnnn1-c1ccccc1)N/N=C/c1ccc(Cl)cc1Cl	103	103	-8	1
CC1(C)C2CCC(C2)C1(C)NC(=O)CNCc1ccco1 (stereo unspecified)	102	103	-35	-8
Clc1ccc(CCc2ccc(Cl)cc2)cc1	104	98	-5	2
COc1ccc(OCC(=O)Nc2cc3c(cc2C(=O)O)OCCCO3)cc1	100	104	6	3
COc1cccc(NC(=O)c2ccnc(N3CCC(C(=O)NCCc4ccccc4)CC3)c2)c1	99	104	1	11
CC(=O)Oc1cc2c(cc1Cl)C(C)(C)CC(C)(c1cc(Cl)c(OC(C)=O)cc1OC(C)=O)O2 (stereo unspecified)	102	109	-13	/
FC(F)(F)c1cccnc1NCCNc1ncnc2scc(-c3ccccc3)c12	106	106	-33	-6
NC(=O)COC(=O)c1ccc(-c2ccc(C(=O)OCC(N)=O)s2)s1	102	88	24	-1
O=C1C2C=NNC2C(=O)N1Cc1ccccc1 (stereo unspecified)	99	102	-13	/
O=C(c1cccc(S(=O)(=O)N2CCc3ccccc3C2)c1)N1CCN(c2ccc(O)cc2)CC1	103	104	-4	-3
N#CC(C(=O)NCCc1ccccc1)c1nc2ccccc2nc1N1CCCCCC1 (stereo unspecified)	122	164	-4	14
CC1CN(Cn2nc(-c3cccc(S(=O)(=O)N(C)C)c3)n(-c3ccc(F)cc3)c2=S)CC(C)O1 (stereo unspecified)	101	98	0	20
NCc1nnc2ccccn12	/	/	5	31
O=C(c1ccc(-n2cccn2)cc1)N1CCCCC1c1nc2ccccc2s1 (stereo unspecified)	100	98	-7	8
N#Cc1c2ncnc(-c3ccccc3)c2n2ccccc12	95	109	-21	-5
Clc1ccc2nnc(Cc3ccccc3)n2n1	103	104	-2	i
O=C(NCc1cccs1)C1CCN(c2ccc(S(=O)(=O)N3CCOCC3)cc2Cl)CC1	103	100	-35	-5
COc1ccc(C(=O)NC(Cc2ccccc2)C(=O)N2CCCCC2)cc1 (stereo unspecified)	104	98	-29	/
COc1ccc(Cl)cc1C(=O)Nc1ccc(NC(=O)c2ccco2)cc1	103	105	-35	/
COc1ccc(-c2noc(CNS(=O)(=O)c3ccccc3)n2)cc1	104	102	-1	-11
CCC(C)N=C1CC(C)(C)CC(=O)/C1=C(\O)Cc1ccccc1 (stereo unspecified)	99	101	/	-2
Cc1ccc(C)c(S(=O)(=O)N/N=C/c2ccc3c(c2)OCCO3)c1	97	101	-7	7
CC1CC(C)CN(C(=O)CCCc2c[nH]c3ccccc23)C1 (stereo unspecified)	103	102	-23	-5
Cc1sc2nc3n(c(=O)c2c1C)N=C(c1ccc(F)cc1)CS3	109	112	11	-15
COc1ccc(N(CC(O)CN2CCCC2)S(=O)(=O)c2ccccc2)cc1 (stereo unspecified)	101	106	-13	-4
COc1ccc(N2C(=N)C(C)(C)NC2=O)cc1	100	103	-6	-11
Cc1cc(Sc2nnc(/N=C/N(C)C)s2)c2ccccc2n1	95	102	-1	9
O=C1c2ccccc2C(=O)N1CCSc1nnc(Cc2cccs2)n1C1CCCCC1	102	106	-13	16
O=C1c2ccccc2C(=O)c2c1n[n+]([O-])n2-c1ccc(F)cc1	96	97	/	0
C=CCN(Cc1ccc(Cl)s1)c1ncnc2sccc12	105	99	-16	-1
COc1ccc(/C=C\C(=O)Nc2c3c(nn2-c2cccc(Cl)c2)CSC3)cc1OC	100	97	-17	17
Nc1ccc(C(=O)NCc2ccccc2)cc1	102	102	-29	-4
O=C(O)CNC(=S)N(Cc1cccs1)C1CCCC1	103	101	8	5
CC1CCN(S(=O)(=O)N2CCC(C(=O)NCCC3=CCCCC3)CC2)CC1	102	101	5	-12
C/C(N)=C(/C#N)C(=O)CSc1nnc(N)s1	105	103	-12	13
NC(=O)c1ccccc1OCC(=O)N1CCCC1c1ccc2c(c1)OCCCO2 (stereo unspecified)	101	106	-16	4
Cn1cc(CC(=O)N2CCN(c3ccc(Cl)cc3)CC2)c2ccccc21	103	105	-15	2
S=C1NN(c2ccccc2)C2=C(CCC2)S1	101	101	-17	/
CC(C)(C)n1cnc2cc(NS(=O)(=O)c3ccccc3)ccc21	100	100	17	-1
COc1cc(/C=C/C(=O)OCC(=O)Nc2ccc(NC(C)=O)cc2)ccc1O	105	107	-6	-23
COc1cccc(-c2nnc(SCC(=O)N3CCCCC3C)o2)c1 (stereo unspecified)	105	102	-15	84
O=S(=O)(Nc1ccc(Oc2ccc(Cl)cc2C2CCCCC2)nc1)c1cccc2nonc12	104	101	-21	-2
O=C(NC1CCN(C(=O)NC2CCCCC2)CC1)c1ccc(F)cc1	103	101	1	-5
O=C(NCC(=O)N1CCSc2ccccc21)c1ccccc1F	104	111	-32	-9
COc1ccc2cc3cc(C(=O)NCCC(C)C)sc3nc2c1	101	99	-23	-83
CCc1ccc(NC(=O)c2cc3c(=O)[nH]c4ccccc4c3n2C)cc1	103	105	-18	2
Cc1ccc(N(CC(=O)NC2CCCC2)C(=O)c2ccc(N3CCCC3)nc2)cc1	104	102	-5	2
N=c1c(C(=O)NC2CCCCC2)cc2c(=O)n3ccccc3nc2n1Cc1cccnc1	100	102	-75	i
CC(O)/C=C/c1ccncc1 (stereo unspecified)	99	95	-370	16
CCCc1ncc(C(=O)c2ccc(OC)cc2)n1C	99	103	-17	25

Additional records:
SMILES	PV pol inh	PV pol inh intensity	MenB inh	Mtb MbtI inh
CCN(CC)S(=O)(=O)c1cc(-c2cc(C(=O)NC3CC3)no2)ccc1OC	100	101	-3	33
COc1ccc(-c2cc(-c3ccccc3O)nc(NC(N)=S)n2)cc1	105	104	-21	/
Cc1nc(C(F)(F)F)nc(Sc2ccccc2Cl)c1Oc1ccccc1	104	108	4	0
CC(C#N)OC(=O)/C=C/c1ccc2ccccc2n1 (stereo unspecified)	104	96	-2	11
N#C/C(=C\Nc1ccc2c(c1)C(=O)OC2)C(=O)c1ccccc1	103	104	-16	-22
CCc1noc(C)c1C(=O)Nc1ccc(N(C)C)cc1	102	93	13	2
NC1=NC2=C(CCCC2)C2(CCCCC2)S1	98	103	20	-27
O=C(C1CC(=O)N(C2CCCCC2)C1)N1CCOCC1 (stereo unspecified)	102	101	-19	2
CCC(CC)NC(=O)c1ccc(OCc2c(C)noc2C)c(OC)c1	104	108	-16	-19
CCn1c2ccc(F)cc2c2nnc(NN)nc21	101	99	-30	11

Part of the list above in order of molecular weight, lowest first.
SMILES	PV pol inh	PV pol inh intensity	MenB inh	Mtb MbtI inh
CCc1noc(C)c1C(=O)Nc1ccc(N(C)C)cc1	102	93	13	2
CCN(CC)S(=O)(=O)c1cc(-c2cc(C(=O)NC3CC3)no2)ccc1OC	100	101	-3	33
Cc1nc(C(F)(F)F)nc(Sc2ccccc2Cl)c1Oc1ccccc1	104	108	4	0

(listing goes on)
SMILES	PV pol inh	PV pol inh intensity	MenB inh	Mtb MbtI inh
Cn1nc(NC(=O)c2ccc(CSc3ccc(Cl)cc3)o2)c2c(F)cccc21	94	97	-18	9
O=C(O)CN(CCN(CC(=O)O)CC(=O)O)CC(=O)O	101	103	-2	-34
CCOC(=O)c1nc(C)sc1-c1ccnn1S(=O)(=O)c1cccc(Cl)c1	102	105	-5	-4
O=C(NCc1cccnc1)/C(=C\c1cccc(Oc2ccccc2)c1)S(=O)(=O)c1ccccc1	99	97	-15	43
CC(C)n1c(CN(C)Cc2ccccc2)nc2ccccc21	98	102	5	-3
O=C(Nc1ccc(Cl)cc1)c1ncoc1-c1cccs1	100	102	-32	-2
Cc1ccc2nc(Cl)c3cc(C(=O)N=C4NC(=O)CN4C)sc3c2c1	99	110	-3	2

Reformatted bar-delimited: entries from further up
SMILES | PV pol inh | PV pol inh intensity | MenB inh | Mtb MbtI inh
C=CCN(Cc1ccc(Cl)s1)c1ncnc2sccc12 | 105 | 99 | -16 | -1
N#CC(CC(=O)c1ccccc1)c1ccccc1 (stereo unspecified) | 105 | 109 | -10 | /
NC1=NC2=C(CCCC2)C2(CCCCC2)S1 | 98 | 103 | 20 | -27
C=CCNc1nc(N)c(C(=C(C#N)C#N)c2ccccc2)s1 | 100 | 107 | -1 | 89
Cc1sc2nc3n(c(=O)c2c1C)N=C(c1ccc(F)cc1)CS3 | 109 | 112 | 11 | -15
Cc1ccc(N(CC(=O)NC2CCCC2)C(=O)c2ccc(N3CCCC3)nc2)cc1 | 104 | 102 | -5 | 2
CCOC(=O)CSCc1cn2cc(Cl)ccc2n1 | 103 | 108 | / | -7

Screening data from PubChem BioAssay.
